Source: PubChem
Vaccinia inh – blocks a specific stage of Vaccinia orthopoxvirus infection. Vaccinia-infected cells, mCherry/Venus stage reporter fluorescence; hits give low values; some inactives read as strong as hits. activity change (mCherry), % (test concentration not listed). hit rate 0.01% among 89,000. AID 1053133;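 active = mCherry past -33% and 40 or more points under the early reporter, replicates agreeing; inconclusive = past -33% without that gap or agreement; tested in A549 cells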;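 note: scaled between vehicle wells and reference inhibitor wells; 23 nL library stock went into each well; one replicate is shown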
Vaccinia inh Venus – further read-out of Vaccinia inh, marked with its call; activity change (Venus), %; measured here: Venus reporter, other viral stage;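 negative = less Venus signal; first of two replicates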
* marks the source's active call; other numbers are inactive results; ? = inconclusive; . = no result given; & = joins results of further samples. A portion of the library; count on the stated rates, not on these rows.

SMILES	Vaccinia inh	Vaccinia inh Venus
CC=Cc1ccc2n(c1=O)C[C@H]1[C@H](CO)[C@@H](C(=O)NCc3ccc(F)cc3)N(Cc3cncnc3)[C@@H]21 (mixture of isomers)	-1	7
O=C(C1CCC1)N1C[C@H]2[C@@H](c3ccccc31)[C@H](CO)N2C(=O)Nc1cccc(F)c1	-8	11
COc1cccc(C(=O)Nc2ccc3c(c2)OC[C@H](C)N(CCc2ccccc2)C[C@@H](C)[C@@H](OC)CN(C)C3=O)c1	-27	-11
CC(=O)NC[C@H]1[C@@H](c2ccc(C#CC(C)C)cc2)[C@@H](CO)N1C(=O)C1CC1	-11	5
CNC[C@@H]1Oc2c(NS(C)(=O)=O)cccc2C(=O)N([C@H](C)CO)C[C@@H]1C	7	5
C[C@@H]1CN([C@@H](C)CO)C(=O)c2cc(NC(=O)Cn3cnnn3)ccc2O[C@@H]1CN(C)C	17	6
C[C@H](CO)N1C[C@H](C)[C@H](CN(C)S(=O)(=O)c2ccc(Cl)cc2)OCCCC[C@H](C)Oc2ccc(NC(=O)Nc3ccccc3)cc2C1=O	0	14
Cc1ccc(S(=O)(=O)N(C)C[C@H]2Oc3c(NC(=O)c4cnccn4)cccc3C(=O)N([C@H](C)CO)C[C@H]2C)cc1	11	14
CO[C@H]1CN(C)C(=O)c2ccc(NC(=O)c3cnccn3)cc2OC[C@H](C)N(CC2CC2)C[C@@H]1C	13	2
COc1ccc(S(=O)(=O)N(C)C[C@@H]2Oc3cc(C#CC4CC4)ccc3S(=O)(=O)N([C@H](C)CO)C[C@@H]2C)cc1	-24	-22
COc1cccc(C#Cc2ccc3c(c2)O[C@H](CN(C)C)[C@@H](C)CN([C@@H](C)CO)S3(=O)=O)c1	?	.
C[C@H](O)C#Cc1ccc([C@@H]2[C@H](CO)N3CCCCN(S(=O)(=O)Cc4ccccc4)C[C@@H]23)cc1	-5	-7
COc1cccc(-c2cnc3c(c2)C(=O)N([C@@H](C)CO)C[C@H](C)[C@@H](CN(C)C(=O)CN(C)C)O3)c1	5	1
C[C@H]1CN([C@@H](C)CO)C(=O)c2cccc(NS(=O)(=O)c3ccc(F)cc3)c2O[C@@H]1CN(C)C(=O)Nc1ccccc1	9	7
O=C(Nc1ccc2c(c1)OCO2)N[C@H]1CC[C@@H](CCNC(=O)C2CC2)O[C@H]1CO	0	6
COc1cccc(NC(=O)N2C[C@H](O)COC[C@H]3O[C@@H](CC(=O)NC4CCC4)CC[C@@H]32)c1	17	14
CN(C)CC(=O)N[C@H]1C=C[C@H](CC(=O)NCc2ccccc2F)O[C@@H]1CO	25	19
Cc1noc(C)c1NC(=O)Nc1ccc2c(c1)CC(=O)N([C@H](C)CO)C[C@@H](C)[C@H](CN(C)S(=O)(=O)c1ccc(F)cc1)O2	8	0
CCCNC(=O)N1CC2(CN(Cc3cccc(OC)c3)C2)c2c([nH]c3cc(OC)ccc23)[C@H]1CO	?	.
CO[C@@H]1CC[C@@H]2CCOc3c(C#N)cccc3C(=O)N(C)CCCC(=O)N(C)C[C@H]1O2	14	11
C[C@@H]1CN([C@H](C)CO)C(=O)CCCn2nncc2CO[C@H]1CN(C)Cc1ccc(C(F)(F)F)cc1	2	-2
COc1ccc2c3c([nH]c2c1)[C@H](CO)N(C(=O)CN(C)C)CC31CCN(CC2CC2)CC1	-2	-8
COCC#Cc1cnc2c(c1)C(=O)N([C@@H](C)CO)C[C@@H](C)[C@@H](CN(C)S(=O)(=O)c1cccc(OC)c1)O2	11	-2
CN(C)C(=O)C[C@H]1CC[C@@H]2[C@H](COc3ccc(NS(=O)(=O)c4cccc(F)c4)cc3C(=O)N2C)O1	17	15
C[C@@H]1CN([C@@H](C)CO)C(=O)c2cccc(NS(C)(=O)=O)c2O[C@H]1CN(C)C(=O)Nc1ccccc1	21	10
CCCN1C[C@@H](C)[C@@H](OC)CN(C)C(=O)c2ccc(NC(=O)Nc3c(C)noc3C)cc2OC[C@H]1C	2	-1
COc1ccc(S(=O)(=O)N(C)C[C@@H]2OCCCC[C@H](C)Oc3ccc(NC(=O)Nc4ccc(F)cc4)cc3C(=O)N([C@H](C)CO)C[C@@H]2C)cc1	-10	9
CCCNC(=O)N1C[C@H]2[C@@H](c3ccccc31)[C@@H](CO)N2Cc1ccc(OC)cc1	13	12
N#C[C@H]1[C@@H](c2ccccc2)[C@H](CO)N1C(=O)c1ccccc1F	9	16
C[C@@H]1CN([C@@H](C)CO)C(=O)c2cc(NC(=O)CCC(F)(F)F)ccc2O[C@@H](C)CCCCO[C@H]1CN(C)C(=O)NC1CCCCC1	-25	-14
CO[C@H]1CN(C)C(=O)c2ccc(NS(=O)(=O)c3cccc(Cl)c3)cc2OC[C@@H](C)NC[C@H]1C	2	6
COCC#Cc1ccc2c(c1)O[C@H](CN(C)CC1CCCC1)[C@@H](C)CN([C@H](C)CO)S2(=O)=O	-26	-23
COc1ccc(S(=O)(=O)N(C)C[C@H]2Oc3ccc(NC(=O)Nc4cccc5ccccc45)cc3CC(=O)N([C@@H](C)CO)C[C@H]2C)cc1	6	5
Cc1noc(C)c1NC(=O)Nc1ccc2c(c1)C(=O)N([C@H](C)CO)C[C@H](C)[C@H](CN(C)Cc1ccc(C(=O)Nc3ccccc3N)cc1)OCCCC[C@@H](C)O2	-1	-6
COCCNC(=O)C[C@H]1CC[C@@H]2[C@H](COC[C@H](O)CN2S(=O)(=O)c2ccccc2C)O1	-4	-4
COCCOC(=O)N1C(=O)[C@@]2(c3cc(C#Cc4ccc(OC)cc4)ccc31)[C@H](c1ccccc1OCCO)N1[C@H](c3ccccc3)[C@H](c3ccccc3)OC(=O)[C@H]1[C@@H]2C(=O)N1CCc2cc(OC)c(OC)cc2C1	-2	11
COc1ccc(S(=O)(=O)Nc2cccc3c2O[C@H](CN(C)C(=O)NC(C)C)[C@@H](C)CN([C@@H](C)CO)C3=O)cc1	13	6
C[C@H]1CN([C@@H](C)CO)C(=O)c2cc(C3=CCCC3)cnc2O[C@@H]1CN(C)C(=O)NC1CCCC1	-6	-5
C[C@@H]1CN([C@@H](C)CO)C(=O)CCCn2cc(nn2)CO[C@@H]1CN(C)Cc1ccc(C(=O)Nc2ccccc2N)cc1	-1	5
CC(C)CC#Cc1cnc2c(c1)C(=O)N([C@@H](C)CO)C[C@H](C)[C@@H](CN(C)Cc1ccccc1)O2	?	.

Compound profiles, from the list above. Order of values: Vaccinia inh | Vaccinia inh Venus
CC(C)CC#Cc1cnc2c(c1)C(=O)N([C@@H](C)CO)C[C@H](C)[C@@H](CN(C)Cc1ccccc1)O2 across the screens: ? | .
COCCOC(=O)N1C(=O)[C@@]2(c3cc(C#Cc4ccc(OC)cc4)ccc31)[C@H](c1ccccc1OCCO)N1[C@H](c3ccccc3)[C@H](c3ccccc3)OC(=O)[C@H]1[C@@H]2C(=O)N1CCc2cc(OC)c(OC)cc2C1 across the screens: -2 | 11
COCC#Cc1ccc2c(c1)O[C@H](CN(C)CC1CCCC1)[C@@H](C)CN([C@H](C)CO)S2(=O)=O across the screens: -26 | -23
COc1ccc(S(=O)(=O)N(C)C[C@H]2Oc3ccc(NC(=O)Nc4cccc5ccccc45)cc3CC(=O)N([C@@H](C)CO)C[C@H]2C)cc1 across the screens: 6 | 5

Ordered by length of the SMILES (smallest number first): part of the list above.
SMILES	Vaccinia inh	Vaccinia inh Venus
N#C[C@H]1[C@@H](c2ccccc2)[C@H](CO)N1C(=O)c1ccccc1F	9	16
CO[C@@H]1CC[C@@H]2CCOc3c(C#N)cccc3C(=O)N(C)CCCC(=O)N(C)C[C@H]1O2	14	11
C[C@@H]1CN([C@@H](C)CO)C(=O)c2cccc(NS(C)(=O)=O)c2O[C@H]1CN(C)C(=O)Nc1ccccc1	21	10
Cc1noc(C)c1NC(=O)Nc1ccc2c(c1)C(=O)N([C@H](C)CO)C[C@H](C)[C@H](CN(C)Cc1ccc(C(=O)Nc3ccccc3N)cc1)OCCCC[C@@H](C)O2	-1	-6

(more compounds)
SMILES	Vaccinia inh	Vaccinia inh Venus
C[C@@H]1CN([C@H](C)CO)C(=O)Cc2cc(NC(=O)CCCN(C)C)ccc2O[C@H]1CN(C)Cc1ccc(Oc2ccccc2)cc1	1	-2
COc1ccc(-c2ccc(C3[C@H]4CNC[C@@H]3N4S(=O)(=O)c3ccc(OC)cc3)cc2)cc1 (stereo partly drawn)	-12&4	-7&5
COc1ccc(CNC(=O)C[C@H]2CC[C@@H](NC(=O)Nc3ccc4c(c3)OCO4)[C@H](CO)O2)cc1	-1	4
O=S(=O)(NCC[C@@H]1CC[C@@H](NS(=O)(=O)c2cccc(Cl)c2)[C@H](CO)O1)c1cccc(F)c1	-11	-4
CN1[C@@H]2c3ccc(/C=C/c4ccccc4)c(=O)n3C[C@@H]2[C@@H](CO)[C@@H]1C(=O)N1CCCCC1	-28	-4
C[C@@H]1CCCCO[C@@H](CN(C)Cc2ccc3c(c2)OCO3)[C@@H](C)CN([C@H](C)CO)C(=O)c2cc(NC(=O)NC3CCCCC3)ccc2O1	-26	-22
Cc1ccc(-c2ccc([C@H]3[C@@H](CO)N4CCCCN(S(=O)(=O)c5cccc(C)c5)C[C@@H]34)cc2)cc1	5	2
COc1ccc(CN(C)C[C@H]2Oc3c(NC(=O)Nc4ccc5c(c4)OCO5)cccc3C(=O)N([C@@H](C)CO)C[C@H]2C)cc1	-4	-7
COc1ccc(S(=O)(=O)Nc2ccc3c(c2)C(=O)N([C@@H](C)CO)C[C@@H](C)[C@@H](CN(C)S(=O)(=O)c2cn(C)cn2)OCCCC[C@@H](C)O3)cc1	28	20
C[C@H](CO)N1C[C@H](C)[C@H](CN(C)Cc2ccc(C(=O)Nc3ccccc3N)cc2)Oc2ccc(NS(C)(=O)=O)cc2CC1=O	12	2
C[C@H](CO)N1C[C@H](C)[C@H](CN(C)Cc2cncnc2)Oc2cc(-c3ccncc3)ccc2S1(=O)=O	17	1
COc1ccc(NC(=O)Nc2cccc3c2O[C@H](CN(C)Cc2ccc(Oc4ccccc4)cc2)[C@@H](C)CN([C@@H](C)CO)C3=O)cc1	-25	-20
Cc1cc(C(=O)Nc2cccc3c2O[C@@H](CN(C)S(=O)(=O)c2ccc(F)cc2)[C@@H](C)CN([C@@H](C)CO)C3=O)n(C)n1	1	4
Cc1noc(C)c1NC(=O)Nc1cccc2c1O[C@H](CN(C)Cc1ccc(Oc3ccccc3)cc1)[C@H](C)CN([C@H](C)CO)C2=O	-12	-11
Cc1noc(C)c1NC(=O)Nc1ccc2c(c1)C(=O)N([C@@H](C)CO)C[C@@H](C)[C@H](CN(C)Cc1ccccc1)OCCCC[C@H](C)O2	17	1
COC(=O)[C@@H]1[C@@H](CO)[C@@H]2Cn3c(ccc(-c4ccc(OC)cc4)c3=O)[C@H]1N2C(=O)c1ccccc1F	2	1
C[C@@H]1CN([C@@H](C)CO)C(=O)Cc2cc(NC(=O)Nc3ccc4c(c3)OCO4)ccc2O[C@H]1CN(C)C	5	7
C[C@@H]1CN([C@@H](C)CO)C(=O)c2cccc(NS(=O)(=O)c3ccc(F)cc3)c2O[C@H]1CN(C)S(=O)(=O)c1ccc(F)cc1	20	23
COc1ccc(NC(=O)Nc2ccc3c(c2)[C@@H]2C[C@H](CC(=O)NCc4ccccc4F)O[C@@H](CO)[C@@H]2O3)cc1	0	-9
COc1ccccc1S(=O)(=O)N(C)C[C@@H]1Oc2cc(C#CCC(C)C)ccc2S(=O)(=O)N([C@@H](C)CO)C[C@@H]1C	-18	-16
C[C@@H]1CN([C@H](C)CO)C(=O)Cc2cc(NC(=O)Nc3ccc4c(c3)OCO4)ccc2O[C@@H]1CN(C)S(C)(=O)=O	10	3
C[C@H](CO)N1C[C@H](C)[C@@H](CN(C)Cc2ccncc2)Oc2ncc(-c3cccc(C#N)c3)cc2C1=O	8	10
COc1ccc(-c2ccc([C@H]3[C@@H](C#N)N(C(=O)NC4CCCCC4)[C@H]3CO)cc2)cc1	?	.
N#Cc1ccc(-c2ccc(C3[C@H]4CNC[C@@H]3N4C(=O)Nc3ccc(F)cc3)cc2)cc1 (stereo partly drawn)	23	7
CC(C)NC(=O)N1[C@H](CO)[C@@H]2c3ccccc3N(C(=O)C3CCC3)C[C@@H]21	3	21
C[C@H]1CCCCO[C@H](CN(C)C)[C@@H](C)CN([C@@H](C)CO)C(=O)c2cc(NS(C)(=O)=O)ccc2O1	13	17
COCC(=O)Nc1ccc2c(c1)[C@H]1C[C@@H](CC(=O)NCCN3CCCCC3)O[C@H](CO)[C@H]1O2	-3	-6
COc1ccc(S(=O)(=O)N(C)C[C@H]2Oc3ccc(NC(=O)C4CCCCC4)cc3CC(=O)N([C@@H](C)CO)C[C@H]2C)cc1	-8	-4
CC(C)C#Cc1cnc2c(c1)C(=O)N([C@H](C)CO)C[C@H](C)[C@H](CN(C)C(=O)C1CCC1)O2	3	-2
C[C@@H]1CN([C@@H](C)CO)C(=O)c2cc(NC(=O)Nc3ccc4c(c3)OCO4)ccc2O[C@@H](C)CCCCO[C@@H]1CN(C)C(=O)C1CCCCC1	-15	-11
C[C@H]1CN([C@@H](C)CO)C(=O)c2cc(NC(=O)CCC(F)(F)F)ccc2O[C@H]1CN(C)Cc1ccc(C(=O)Nc2ccccc2N)cc1	9	0
O=C(C[C@H]1C[C@@H]2c3cc(NC(=O)C4CCC4)ccc3O[C@@H]2[C@@H](CO)O1)NCC1CC1	14	9
C[C@H](CO)N1C[C@H](C)[C@H](CN(C)Cc2ccccc2)Oc2c(NC(=O)Nc3ccc(C(F)(F)F)cc3)cccc2C1=O	-34	-23
COc1ccc(NC(=O)N(C)C[C@@H]2Oc3ccc(NC(=O)CCC(F)(F)F)cc3CC(=O)N([C@H](C)CO)C[C@@H]2C)cc1	12	5
COc1ccc(-c2ccc([C@@H]3[C@@H](CO)N(C(=O)C4CCCCC4)[C@H]3C#N)cc2)cc1	-12	-6
C[C@H](CO)N1C[C@H](C)[C@@H](CN(C)S(=O)(=O)c2cccs2)Oc2ccc(NS(=O)(=O)c3ccc(F)cc3)cc2CC1=O	2	6
